# Screening results from PubChem.
# Tgondii IFNg: blocks Toxoplasma gondii growth in the presence of IFN-gamma; Toxoplasma gondii growth in IFN-gamma-treated host cells; active compounds read low; reference of the scale not given here; activity change, negative = inhibition, %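 (about 20 µM by stock and volumes)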; actives 3.8% (n = 69,000); AID 1259416;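 active = below -70%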;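 also: host cells are HeLa cells infected with Toxoplasma gondii; parasite growth read as luciferase light; one replicate is shown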
# Active calls of the source: *; i = inactive.
SMILES,Tgondii IFNg
CC(C)Oc1ccc(C2CC(=O)N(c3ccc(C(=O)O)cc3)C2=O)cc1 (stereo unspecified),19.2
COC(=O)c1[nH]ncc1CN1CCN(S(=O)(=O)c2ccccc2)CC1,3.1
O=C(CCCc1ccccc1)NCCc1csc(-c2ccc(C(F)(F)F)cc2)n1,9.9
CN(C)Cc1cc(=O)n2c(n1)CN(C(=O)c1cnccn1)CCC2,40.6
COCC(NC(=O)COc1c(C)ccc(C)c1C)c1ccccn1 (stereo unspecified),-43.2
Cc1nonc1C1CCCN1Cc1ccc(C(=O)Nc2c(C)noc2C)cc1 (stereo unspecified),4.1
CCOC(=O)N1CCN(Cc2ccc3c(c2)CN(C(=O)c2ccc(C#CC(C)(C)O)o2)CCO3)CC1,-17.9
CCc1nc(C)c(C(=O)N2Cc3cnn(Cc4ccc(F)cc4)c3C2)o1,58.1
CCOc1ccc(CCNc2nc(-c3ccc(Cl)cc3)nc3ccccc23)cc1OCC,-48.7
Cc1ccc2c(c1)c(Cn1ccnc1-c1cccs1)nn2C,3.4
Cc1cccc(-c2nnc(-c3nc(Nc4ccc(C)c(F)c4)c4ccccc4n3)o2)c1,51.7
COc1cccc(-n2c(=O)c(C(=O)Nc3cccc(Cl)c3)c(O)c3cccnc32)c1,57.2
Fc1ccc(N2CCCN(Cc3cccs3)CC2)cc1,-3.2
COC(=O)[C@@H]1[C@@H](CO)[C@@H]2Cn3c(ccc(-c4ccccc4OC)c3=O)[C@@H]2N1C(=O)c1cnccn1,1.5
CCCNC(=O)C[C@@H]1CC[C@@H]2[C@H](COC[C@H](O)CN2C(=O)c2ccc(F)cc2)O1,9.9
CCOCC1CC2(CCN(Cc3nccs3)CC2)CO1 (stereo unspecified),5.8
Cc1cc(N2CCCCC2)nc(-c2ccc(Br)cc2)n1,-11.2
Cc1ncsc1CCNC(=O)C1CC2(CCNCC2)CN1 (stereo unspecified),11.5
O=C(Nc1ccccc1Br)c1nc(Nc2ccccc2)c2ccccc2n1,-74.2*
Cc1ccc(-c2nnc(N3CCN(C(=O)CN4CCOCC4)CC3)c3ccccc23)cc1,-14.9
Cc1nc(NC(=O)c2cc3cc(Br)ccc3oc2=O)sc1C,39.4
CC(=O)NCCn1cnc(-c2ccccc2)c1-c1oc2ccccc2c1C,-1.9
N#C[C@H]1[C@@H](c2ccc(C3=CCCC3)cc2)[C@@H](CO)N1C(=O)c1ccccn1,4.8
COc1ccc2c3c(n(C)c2c1)[C@@H](CO)NCC31CCN(Cc2cc(-c3ccccc3)on2)CC1,-51.1
CC(=O)N1C[C@@H]2C(=O)N(C)C3(CCN(S(=O)(=O)Cc4ccccc4)CC3)[C@H]2C1,-42.0
Cc1c(Cl)cccc1NC(=O)Cn1c(=O)cc(C(=O)N(C)C)c2ccccc21,6.2
Nc1nnc(SCc2c(-c3ccccc3)nnn2-c2ccc(F)cc2F)s1,22.9
COc1cc(CN2CC3(CN(C(=O)Nc4c(C)noc4C)C3)c3c([nH]c4cc(OC)ccc34)[C@H]2CO)cc(OC)c1,84.2
CN(C)C(=O)c1ccc2nnc3ncn(C4CCCC4)c3c2c1,-2.5
O=C(CCC1Nc2c3ccccc3nc(=S)n2C1=O)NCCN1CCN(c2cccc(Cl)c2)CC1 (stereo unspecified),7.1
CO[C@H]1CN(C(=O)C2(c3ccc(Cl)cc3)CCC2)CC[C@H]1N,-6.9
Cc1cnc(CNc2nc(CCN)nc3sc(C)c(C)c23)cn1,-4.6
Cc1cccc(N2CCN(C(=O)c3csc(-c4ccc(N5CCCC5)nc4)n3)CC2)c1,-5.7
CCOc1ccc(N(C)C(=O)CN2C(=O)CCc3cc(S(=O)(=O)N4CCCCC4)ccc32)cc1,0.7
O=C(Nc1ccc2c(c1)CN(Cc1ccccc1)C2)c1cnc(N2CCOCC2)nc1,-95.5*
COc1ccc(-c2nc(CN3CCN(Cc4cc(=O)oc5cc(C)ccc45)CC3)c(C)o2)cc1OC,-27.8
COCCCn1nnnc1SCC(=O)Nc1nc2ccccc2s1,5.9
CC1CCN(S(=O)(=O)c2ccc3c(c2)CCC(=O)N3CC(=O)NCc2ccccn2)CC1,35.8
Nc1cccc(-c2cc3c(Oc4cccc(O)c4)ncnc3[nH]2)c1,-61.0
CCOC(=O)CNC(=S)NN(C)C,12.4
CN(C)CC(=O)N1CC2(C1)[C@H](c1ccccc1)[C@@H](CO)N2S(C)(=O)=O,-18.3
O=C(C[C@@H]1CC[C@@H](NS(=O)(=O)c2ccccc2F)[C@@H](CO)O1)NCCCN1CCOCC1,50.8
Cc1cccc(-c2nc(C)c(CCNS(=O)(=O)c3ccc(F)c(C(F)(F)F)c3)s2)c1,16.0
Cc1nc(-c2cccc(F)c2)sc1CCNC(=O)c1ccc(Br)o1,-29.6
CC1CCCN(S(=O)(=O)N2CCC3(CC2)NC(=O)N(Cc2ccccc2)C3=O)C1 (stereo unspecified),1.3

# Of the compounds above, 2 contain a CF3 group.
SMILES,Tgondii IFNg
O=C(CCCc1ccccc1)NCCc1csc(-c2ccc(C(F)(F)F)cc2)n1,9.9
Cc1cccc(-c2nc(C)c(CCNS(=O)(=O)c3ccc(F)c(C(F)(F)F)c3)s2)c1,16.0

# Following part:
SMILES,Tgondii IFNg
CCn1c(C2CCCN(C(=O)Cc3ccc4c(c3)OCO4)C2)nn(C)c1=O (stereo unspecified),6.9
C[C@@H]1CC(=O)NCC/C=C\C[C@@H](c2ccc3c(c2)OCO3)NC1=O,-1.9
CN1C(=O)c2cc(NC(=O)c3ccc(C(F)(F)F)cc3)ccc2OC[C@@H]2O[C@@H](CC(=O)NCc3ccc4c(c3)OCO4)CC[C@H]21,-33.7
CCC1=N[C@]2(CC[C@@H]3CN(c4ncc(F)cn4)C[C@H]32)C(=O)N1CC1CC1,8.0
Cc1nnc(-c2ccc3ccn(CC(=O)N4CCN(CCn5c(C)ccc5C)CC4)c3c2)o1,93.1
C=CCO[C@H]1CN(C(=O)c2ccnnc2)[C@H]2COC[C@@H]12,-4.1
CC(=O)Cc1nsc(NC(=O)C(C)(C)Oc2ccc(Cl)cc2)n1,-7.4
CS(=O)(=O)CC(=O)N1C[C@H]2CCC[C@]2(COCc2ccncc2)C1,6.7
CN1CC2(CCCN(CCCCOc3ccccc3)C2)OC1=O (stereo unspecified),0.1
O=C1CC(c2ccccc2)S(=O)(=O)c2ccccc21 (stereo unspecified),24.1
Cn1nc(C(F)(F)F)cc1OS(=O)(=O)c1cc(Cl)c(Cl)cc1Cl,-40.3
CCCCCCn1c(=O)c(C2=NS(=O)(=O)c3ccccc3N2)c(O)c2ccccc21,-13.8
O=C(C[C@H]1CC[C@@H]2NC[C@@H](O)COC[C@H]2O1)NCc1ccc2c(c1)OCO2,-3.1
COC(=O)c1c(NC(C)c2cccnc2)c2cccc(Cl)c2[nH]c1=O (stereo unspecified),10.3
Cc1ccsc1[C@@H]1CCN(C(=O)c2ccncc2Cl)C[C@H]1O,1.0
CCN1c2ccccc2C(=O)NC12CCN(C(=O)c1cccc(C)c1)CC2,-1.3
COc1c(CN2CCC3(CC2)NC(=O)N(Cc2ccccc2)C3=O)c(C)nn1C,7.7
CCc1cc(C(=O)N2CCCC(CCc3ccc(F)cc3)C2)ccn1 (stereo unspecified),-34.9
OC1CCN(c2ccnc(N3C[C@H]4C[C@H](O)[C@H](O)C[C@H]4C3)n2)CC1,-2.2
COc1ccc2[nH]cc(CCNC(=O)CN3C(=O)CSc4cccn4-c4ccccc43)c2c1,44.9
COC1CCN(Cc2cn(-c3ccc(F)cc3F)nc2-c2ccccc2C)CC1,-5.1
OCCN(CCO)c1nc2ccccc2[nH]1,4.3
CCn1c(-c2cc(NC(=O)c3cnccn3)n[nH]2)cc2ccccc21,78.2
CC1CCN(CCNC(=O)CNS(=O)(=O)c2cccc3cccnc23)CC1,4.4
O=C(CN1CCC(n2nnc3cc(C(F)(F)F)ccc32)CC1)N1CCc2ccccc21,-81.4*
CCCc1cc(=O)[nH]c(SCc2noc(-c3snnc3C)n2)n1,-19.5
COc1nccnc1N1CCC2(CC1)C(=O)N(C)c1ccccc12,-7.3
COc1ccc(CNC(=O)Cn2c(N)nc(C)c(C)c2=O)cc1,-29.0
O=C(C[C@@H]1CC[C@@H](NC(=O)C2CCOCC2)[C@@H](CO)O1)NCC1CCCCC1,13.7
Cc1ccc(NC(=O)CC2Nc3cccc4cccc(c34)NC2=O)cc1 (stereo unspecified),i

# By substructure, the compounds so far with a Cl atom
SMILES,Tgondii IFNg
CCOc1ccc(CCNc2nc(-c3ccc(Cl)cc3)nc3ccccc23)cc1OCC,-48.7
COc1cccc(-n2c(=O)c(C(=O)Nc3cccc(Cl)c3)c(O)c3cccnc32)c1,57.2
Cc1c(Cl)cccc1NC(=O)Cn1c(=O)cc(C(=O)N(C)C)c2ccccc21,6.2
O=C(CCC1Nc2c3ccccc3nc(=S)n2C1=O)NCCN1CCN(c2cccc(Cl)c2)CC1 (stereo unspecified),7.1
CO[C@H]1CN(C(=O)C2(c3ccc(Cl)cc3)CCC2)CC[C@H]1N,-6.9
CC(=O)Cc1nsc(NC(=O)C(C)(C)Oc2ccc(Cl)cc2)n1,-7.4
Cn1nc(C(F)(F)F)cc1OS(=O)(=O)c1cc(Cl)c(Cl)cc1Cl,-40.3
COC(=O)c1c(NC(C)c2cccnc2)c2cccc(Cl)c2[nH]c1=O (stereo unspecified),10.3
Cc1ccsc1[C@@H]1CCN(C(=O)c2ccncc2Cl)C[C@H]1O,1.0

# Next part:
SMILES,Tgondii IFNg
CC(=O)N[C@H]1CSSC[C@@H](C(N)=O)NC(=O)[C@H](C(C)C)NC(=O)[C@H](C)NC(=O)[C@H](Cc2cnc[nH]2)NC1=O,8.0
CCOc1ccc(NC(=O)c2c(O)c3cccnc3n(-c3ccc(F)cc3)c2=O)cc1,164.3
Cn1cc(CN2CC[C@@H]3OCCN(C(=O)c4ccncc4)[C@@H]3C2)cn1,5.7
Cc1cc(C2CCCN2C(=O)c2cc(C)sc2NC(=O)C(C)(C)C)on1 (stereo unspecified),-15.1
Cc1ccccc1C(=O)N1CCN(S(=O)(=O)c2cc3c4c(c2)CCC(=O)N4CCC3)CC1,1.3
O=C(Nc1ccccc1F)c1c(O)c2cccnc2n(-c2cccc(F)c2)c1=O,24.6
Cc1ccnc(CC(C)N(C)C(=O)c2cc(CC(C)C)no2)c1 (stereo unspecified),3.0
CCOc1cccc(C(=O)Nc2ccc(N3CCN(C(=O)c4ccco4)CC3)cc2)c1,-86.4*
CCOc1ccc(-c2nc(Cn3nnc(C(=O)Nc4cccc(C)c4C)c3C)c(C)o2)cc1,23.3
Cc1cc(=O)oc2cc(OC(C)C(=O)N3CCn4cncc4C3)c(Cl)cc12 (stereo unspecified),-7.0
C/C=C/c1ccc([C@H]2[C@@H](CO)N(C(=O)CC)[C@@H]2CN(C(=O)C2CC2)C(C)C)cc1,12.4
CNC(=O)C1Cn2ccnc2C2(CCN(CC3CCOCC3)CC2)O1 (stereo unspecified),0.4
Cc1nc(-c2ccc(Cl)cc2)sc1CCNC(=O)C(=O)Nc1ccc2c(c1)OCO2,-89.8*
Cc1nnsc1CNC(=O)Cc1c(C)nn(-c2ccccc2)c1C,-16.9
CC1CCC2(CC1)NC(=O)N(CC(=O)Nc1cc(F)ccc1N1CCCC1)C2=O (stereo unspecified),-5.2

# The closing 3 compounds of the part above open the next one:
SMILES,Tgondii IFNg
Cc1nc(-c2ccc(Cl)cc2)sc1CCNC(=O)C(=O)Nc1ccc2c(c1)OCO2,-89.8*
Cc1nnsc1CNC(=O)Cc1c(C)nn(-c2ccccc2)c1C,-16.9
CC1CCC2(CC1)NC(=O)N(CC(=O)Nc1cc(F)ccc1N1CCCC1)C2=O (stereo unspecified),-5.2
CCC(Cn1ccnc1)NC(=O)c1ccc2c(c1)nnn2C (stereo unspecified),0.8
CC(=O)c1cccc(-n2c(Cc3ccc(O)cc3)n[nH]c2=O)c1,3.3
COC(=O)c1cc2n(n1)CCCN(C(=O)c1cc3c([nH]c1=O)CCCC3)C2,5.1
CCCCCCCCCCCCCCCCCCc1ccc(C(=O)/C=C/C(=O)O)cc1,7.0
COc1ccc(-c2nc(Cn3nnc(-c4nc(-c5cc(OC)cc(OC)c5)no4)c3C)c(C)o2)cc1,7.1
CO[C@@H](CN(C)Cc1ccc2c(c1)OCO2)[C@H](C)CN(C(=O)c1ccccc1)[C@H](C)CO,-15.5
CCn1c(SCc2nc(-c3ccccc3C)oc2C)nc(=O)c2c(C(=O)OC)cc(C3CC3)nc21,17.2
CCN(CCN1CCOCC1)C(=O)c1cccc2nccnc12,-1.9
O=C1NC(C(=O)N2CC(c3cccnc3)C2)Cc2ccccc21 (stereo unspecified),-2.6
N#C[C@H]1[C@H](c2ccccc2C2=CCCCC2)[C@H](CO)N1C(=O)CN1CCOCC1,-3.9
N#Cc1c(Cl)cccc1NC1CCCCNC1=O (stereo unspecified),-24.9
CC(=O)Nc1ccc(Cl)c(C(=O)NCCN2CCCC(O)C2)c1 (stereo unspecified),-22.6
O=C(NCCSCc1ncc(C(F)(F)F)cc1Cl)c1ccccc1,-10.6
C=CCNc1ccccc1C(=O)NCc1ncc[nH]1,-0.4
CN(C)CCN1C[C@@H]2CN(C(=O)[C@H]3CCCO3)C[C@H]2C1=O,158.6
CN(C)c1ncc(-c2ccccc2F)c(C2CCCN(S(=O)(=O)c3cn(C)cn3)C2)n1 (stereo unspecified),-17.4
COc1ccc(Cc2cnc(NC(=O)c3ccc(Cn4ccnc4)o3)s2)cc1,20.0
CO[C@@H]1CN(C)C(=O)c2cc(NC(=O)Nc3c(C)noc3C)ccc2OC[C@@H](C)NC[C@@H]1C,-52.3
Cc1ccc(OC(=O)N(C)C[C@@H]2OCc3ccccc3-c3ccccc3C(=O)N([C@H](C)CO)C[C@H]2C)cc1,-25.2
COc1ccc2nc(SCc3ncc(C)c(OC)c3C)[nH]c2c1,-27.6
Cc1ccc(-c2nc(C)c(CCNC(=O)C(=O)Nc3ccccc3C)s2)cc1,-39.0
c1ccc(-c2nc(Cn3ccnc3-c3cnc(N4CCCC4)nc3)co2)cc1,-16.4
COc1ccc(CC(=O)N2CCC3(CC2)CC(N(C)C)C3)cc1,4.0
O=C(/C=C/c1ccc2ccccc2n1)c1ccncc1,14.6
Cc1cnc(C(=O)N2CC3CCC2C3OCC(C)C)cn1 (stereo unspecified),-22.7
Cc1nn(CC(C)C)cc1S(=O)(=O)N(C)Cc1nonc1C,-26.9
CCOCC12CCCOC1CCN(Cc1cccs1)C2 (stereo unspecified),-32.2

# The list is partial; count on the stated rates, not on these rows.
